From PubChem BioAssay
LASV entry inh – inhibitors of Lassa virus binding or cell entry; Lassa virus pseudotype entry inhibition, cell reporter; control for the full effect not named in the record; Potency, µM (doses to about 37.9 µM), for the others: top-dose activity change, negative = inhibition, actives largely listed as inhibitors; 1.2% of 300,000 active; active means well fitted inhibition curve with a large enough effect; inconclusive means small, poorly fitted or top-dose-only effect, or effect the other way; inactive means flat fitted curve, though single readings scatter; tested in HEK293 cells; note: % is set by controls: 0 for no effect and ±100 for the full control effect; nearly all actives have a fitted effect of over 50% in size; luciferase read-out
RE007 growth inh – less growth of the S. pombe RE007 Vpr strain. S. pombe RE007 Vpr strain, BacTiter-Glo ATP luminescence, 24 h; control for the full effect not named in the record. Potency, µM (doses to about 92.2 µM), for inactives: top-dose activity change, negative = less growth. 0.21% of 360,000 active; active = well fitted falling curve with a large enough effect; inconclusive = small, poorly fitted or top-dose-only effect; inactive = no such curve, though single readings can be large or run the other way;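 note: % is set by controls: 0 for no effect and ±100 for the full control effect; nearly all actives have a fitted effect of over 50% in size; the assay follows cell death caused by Vpr and the record does not say whether a fall means rescue or toxicity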
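Fission yeast RE007 carrying one integrated HIV-1 vpr copy, seeded at OD 0.01 in PMG+AL medium with 23 nL pinned compound. Grown 24 h at 30 degrees; viability read by BacTiter-Glo luminescence after 5 min.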
NS1 function inh – inhibitors of influenza NS1 protein function | AID 2326 | S. cerevisiae slowed by influenza A NS1, growth recovery by OD600 | Potency, µM (titrated, usually from 46.1 µM), without a hit: at the top dose activity, positive = more growth | 0.4% of 270,000 active; note: actives are rising curves; nearly all actives have a fitted effect of over 50% in size
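Read-out: OD600 growth recovery of NS1-expressing budding yeast. Cells grown overnight at 30C in -URA glucose medium, washed, resuspended and diluted 1:100 in 2% galactose assay medium, pH 6.0. Same strain lacking NS1 served as positive control.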
SARS PLpro yeast – SARS-CoV PLP inhibition in yeast; S. cerevisiae expressing SARS-CoV PLpro, growth rescue; control for the full effect not named in the record; Potency, µM (doses to about 32.9 µM), for the others: at the highest dose activity, positive = growth rescue; 0.19% of 330,000 active; AID 485353; note: 0% is about no effect; nearly all actives have a fitted effect of over 55% in size; growth read by luminescence after 48 h
Marburg entry inh – inhibitors of Marburg virus binding or cell entry; Potency, µM (series often up to 37.8 µM), for the others: top-dose activity change, negative = inhibition, usual class: inhibitors; 1.8% of 300,000 active; Marburg virus pseudotyped entry inhibition, cell reporter; control for the full effect not named in the record; about a third of the inactives were read at about 46 µM; AID 540276; active = well fitted inhibition curve with a large enough effect; inconclusive = small, poorly fitted or top-dose-only effect, or effect the other way; inactive = flat fitted curve, though single readings scatter; tested in HEK293 cells; about a fifth of its hits are not listed in these tables; note: % is set by controls: 0 for no effect and ±100 for the full control effect; luciferase read-out
2A StopGo – lowers the luciferase signal of an FMDV 2A StopGo reporter. human cells with a luciferase reporter of 2A StopGo recoding; control for the full effect not named in the record. 1.2% of 410,000 active. Potency, µM (top dose mostly 57.9 µM), for the others: at the highest dose signal change, negative = less light; active = well fitted falling curve with a large enough effect; inconclusive = small, poorly fitted or top-dose-only effect; inactive = no such curve, though single readings can be large or run the other way; tested in HEK293T cells; note: % is set by controls: 0 for no effect and ±100 for the full control effect; nearly all actives have a fitted effect of over 45% in size; luciferase light after 4 h
Cruzain inh noDet – cruzain (T. cruzi) inhibition without detergent. purified cruzain, Z-FR-AMC fluorescence, no detergent. 2.3% of 200,000 active. Potency, µM, without a hit: max response, negative = inhibition, hits mostly inhibitors. P25779; active = well fitted curve in the direction sought with a large enough effect; inconclusive = small, poorly fitted or top-dose-only effect, or another doubt; inactive = no such curve, though single readings can be large; an effect the other way counts as inactive or inconclusive;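 note: plate controls were enzyme without inhibitor for no effect and buffer without enzyme for full effect; nearly all actives have a fitted effect of over 40% in size; top concentration of the series not given in the record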
Target sequence (P25779 123-467 limits assumed): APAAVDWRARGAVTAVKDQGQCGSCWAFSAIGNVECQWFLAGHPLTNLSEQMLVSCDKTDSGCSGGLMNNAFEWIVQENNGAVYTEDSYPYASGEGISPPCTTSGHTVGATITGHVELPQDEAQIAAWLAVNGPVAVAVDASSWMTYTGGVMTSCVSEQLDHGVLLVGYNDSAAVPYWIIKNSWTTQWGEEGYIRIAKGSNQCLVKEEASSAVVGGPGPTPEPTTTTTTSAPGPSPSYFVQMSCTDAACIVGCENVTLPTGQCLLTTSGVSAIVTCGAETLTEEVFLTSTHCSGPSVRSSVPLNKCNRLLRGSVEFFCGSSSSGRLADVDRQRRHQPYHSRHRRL
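Purified cruzain at 1.5 nM, pre-incubated 15 min with compound at room temperature in 100 mM sodium acetate pH 5.5, 5 mM DTT, 0.00005% Triton X-100. Reaction started with 2 uM Z-FR-AMC; AMC fluorescence increase over 60 s gives rate.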
Cruzain inh Det – cruzain (T. cruzi) inhibition with detergent. purified cruzain, Z-FR-AMC fluorescence, 0.01% Triton. Potency, µM, for inactives: max response, negative = inhibition, usual class: inhibitors. P25779. 0.43% of 200,000 active; active = well fitted curve in the direction sought with a large enough effect; inconclusive = small, poorly fitted or top-dose-only effect, or another doubt; inactive = no such curve, though single readings can be large; an effect the other way counts as inactive or inconclusive;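 note: plate controls were neutral wells for no effect and buffer without enzyme for full effect; nearly all actives have a fitted effect of over 40% in size; top concentration of the series not given in the record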
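Sodium acetate buffer (100 mM, pH 5.5) containing 5 mM DTT and 0.01% Triton X-100 hosted 1.5 nM cruzain and test compound for 15 min at room temperature. Cleavage of 2 uM Z-FR-AMC was then tracked by fluorescence.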
* = called active by the depositor; ? = inconclusive; nt = not tested or not shown; & = joins results of further samples; [ ] = dose if it differs, or a comment. Unless noted, calls come from the whole dose curve; as a rule, active means well fitted rising curve with a large enough effect; inconclusive means small, poorly fitted or top-dose-only effect; inactive means no such curve, though single readings can be large or run the other way. Potency is the fitted concentration of half-maximal effect.

SMILES | LASV entry inh | RE007 growth inh | NS1 function inh | SARS PLpro yeast | Marburg entry inh | 2A StopGo | Cruzain inh noDet | Cruzain inh Det
Cc1ccnc(NS(=O)(=O)c2ccc(NC(=O)c3oc4ccc(F)cc4c3C)cc2)n1 | nt | -6% | 5% | -6% | nt | 8% | nt | nt
COc1ccc(NC(=O)CCc2c(C)nn(-c3ccc(N4CCCCC4)nn3)c2C)cc1Cl | -3%[46.1 µM] | nt | nt | nt | nt | -2% | ? | -5.2%
Cc1ccc(/C=C/c2onc(C)c2S(=O)(=O)N2CCC(C(=O)Nc3cccc(C#N)c3)CC2)cc1 | 15%[46.1 µM] | nt | nt | nt | nt | ? | -1% | -1.8%
COCCN(C)Cc1nc(C(c2ccccc2)c2ccccc2)no1 | nt | 1% | -9% | 2% | nt | -5% | nt | nt
O=C(CN1C(=O)NC2(CCOc3ccccc32)C1=O)Nc1ccc2c(c1)OCCO2 (stereo not drawn) | -1% | -21% | -6% | -3% | 17%[46.1 µM] | -6% | -12% | 1.5%
CC(=O)C1(O)CCC2C3CCC4CC(=O)CCC4(C)C3C(=O)CC21C (stereo not drawn) | -4%[46.1 µM] | 2% | nt | nt | 1% | -9% | nt | nt
CC(=O)n1cc([C@H]2C=C(C(=O)Nc3ccccc3)O[C@@H](OCCCCO)C2)c2ccccc21 | nt | 3% | 9% | 0% | nt | -22% | nt | nt
COc1ccccc1NC(=O)c1cc(OC)c(OC)cc1[N+](=O)[O-] | -1% | 7% | nt | 1% | ? | -7% | nt | nt
CC(=O)c1c(C)[nH]c(C(=O)OCC(=O)NCC(C)C)c1C | -14% | -15% | nt | 0% | -11%[46.1 µM] | -10% | nt | nt
O=C(C1CCN(S(=O)(=O)c2cccnc2)CC1)N1CCN(c2ccc(Cl)cc2)CC1 | nt | -1% | -1%&-9% | -1% | 4% | ? | nt | nt
OC1(c2ccc(F)cc2)CCN(Cc2cccnc2)CC1 | 7% | 4% | -4% | -2% | 4% | -18% | nt | nt
O=C1CC(NCc2ccccc2)C(=O)N1c1ccc(F)cc1 (stereo not drawn) | 11% | -18% | 0% | -2% | -1%[46.1 µM] | 10% | nt | nt
COc1cc(/C=N\NC(=O)Cn2nnc3ccccc32)cc(OC)c1OC | ? | 13% | -3% | 0% | -7%[46.1 µM] | 0% | 3% | -8.4%
CC(C)OCCCNC(=O)CCCn1c(SCC(=O)c2ccc(F)cc2)nc2c(sc3ccccc32)c1=O | 12%[46.1 µM] | nt | nt | nt | 1%[46.1 µM] | -9% | -7% | 0.8%
Cc1cc(C=C2C(=O)c3ccccc3C2=O)c(C)n1-c1ccc(C(=O)O)cc1 | ? | 4% | -1% | 0% | ? | 10% | nt | nt
Cc1nn(-c2ccccc2)c(C)c1NC(=O)c1ccc(S(=O)(=O)N2CCCC2)cc1 | 16% | 2% | -6% | 0% | -20% | nt | 11% | 2.2%
COc1ccc(-n2nc(C(=O)N(C)c3cc(C)ccc3C)c3c4ccccc4n(C)c3c2=O)cc1Cl | 1%[46.1 µM] | nt | nt | nt | ? | 12% | 2% | 0.3%
N#C/C(=C\c1c[nH]c2ccccc12)C(=O)NC1CC1 | ? | 50% | -17% | -17% | ? | 24% | nt | nt
COc1ccc(C(=O)NCc2ccon2)cc1OC1CCN(C(C)C)CC1 | nt | -1% | 2% | 5% | nt | -19% | nt | nt
Cc1noc(C)c1S(=O)(=O)Nc1ccc(C(=O)N2CCCCC2)cc1 | -9% | -6% | 4% | 15% | 2% | nt | 3% | -2.2%
Cc1ccc(S(=O)(=O)NC(C(=O)Oc2ccc3c(C)c(Cl)c(=O)oc3c2)c2ccccc2)cc1 (stereo not drawn) | 15% | -5% | -4% | 10% | -6% | 0% | -2% | -16%
COCCNC(=O)CN1CCC(NC(=O)Nc2ccc(C(F)(F)F)cc2)CC1 | 17% | -7% | -17% | -6% | 19%&19% | 7% | -4% | -6.4%
CC(C)NC(=O)C(Sc1ccccc1)c1ccccc1 (stereo not drawn) | 0% | -3% | 4% | 4% | 9% | 12% | 2% | 6.2%
Cc1[nH]c2c([N+](=O)[O-])cccc2c1C | 4% | 5% | 1% | 1% | 11% | -3% | nt | nt
CCN1CCN(C(=O)c2nn(-c3ccc(OC)cc3)c(=O)c3c2c2ccccc2n3C)CC1 | -6% | -4% | -3% | -42% | -10% | -12% | -5% | -4.4%
Cc1ccc(-c2c(CC(=O)O)c(C)nc3sc4c(c23)CCCC4)cc1 | nt | 8% | 13% | 0% | nt | 15% | nt | nt
CCc1ccc(OCc2nnc(SCC(=O)NCc3ccco3)o2)cc1 | 21% | 3% | -9% | 0% | 9% | -7% | -5% | -1.8%
Cc1ccccc1N1CCN(C2CCCN(C(=O)c3cc[n+]([O-])cc3)C2)CC1 (stereo not drawn) | nt | -13% | 3% | 1% | nt | 0% | nt | nt
COc1cccc(N2CCN(C(=O)CCc3c(C)nc4c(c3C)c(=O)n(C)c(=O)n4C)CC2)c1 | 17%[46.1 µM] | nt | nt | nt | 16%[46.1 µM] | 0% | 2% | 1.9%
CC(=O)c1cccc(NS(=O)(=O)c2ccc3[nH]c4c(c3c2)CCCCC4)c1 | 15%[46.1 µM] | nt | nt | nt | nt | 5% | ? | -14%
CCCCn1cnc2c(SCc3cccc(F)c3)nc(N)nc21 | 9%[46.1 µM] | -7% | nt | nt | -18%[46.1 µM] | 24% | nt | nt
C/C(=C\C#N)n1nc(C)cc1N | 8% | 0% | -5% | -6% | 6% | nt | -1% | 5.7%
COc1ccccc1CCNC(=O)Nc1cccc([N+](=O)[O-])c1 | -10%[46.1 µM] | 1% | 2% | -1% | ? | 0% | nt | nt
CCOc1ccc(C2C(C#N)=C(N)SC(N)=C2C#N)cc1OCC | 2% | -6% | -10% | -1% | -2%&-2% | -8% | -1% | -11%
O=C(COC(=O)Cc1ccsc1)Nc1ccccc1 | 0%[46.1 µM] | -3% | nt | 1% | 2%[46.1 µM] | 12% | nt | nt
CC(C)(C)c1ccc(-c2cc(-c3ccccc3O)[nH]n2)cc1 | ? | ? | -3% | -10% | ? | -47% | nt | nt
CCCN(CCC)CCNC(=O)c1cc(-c2ccc(Br)s2)nc2ccccc12 | ? | nt | nt | nt | ? | -13% | 1% | -2.2%
COc1ccccc1C(=O)NCCC(=O)NCCc1ccccc1 | 12% | 29% | 24% | 1% | ? | 19% | nt | nt
COC(=O)Cc1ccc(NC(=S)NCc2ccccc2OC)cc1 | 24%[46.1 µM] | -4% | -8% | -2% | -9%[46.1 µM] | 8% | nt | nt
O=C(CCc1ccccc1)n1nc(-c2ccco2)nc1SCc1ccccc1 | nt | -8% | -85% | -6% | nt | 34%[activator] | ? | 2.2%
Cc1cc(/C=C2/SC(=O)N(CC(=O)N3CCCC3)C2=O)ccc1N1CCOCC1 | 4% | -2% | nt | 1% | 5% | 7% | nt | nt
CCOC(=O)c1ccccc1NC(=O)C1CC(=O)N(C2CCCC2)C1 (stereo not drawn) | 21% | 14% | nt | nt | 3%[46.1 µM] | 1% | nt | nt
CCOC(=O)C1CCCN(C(=O)c2ccc3c(c2)N(Cc2ccccc2)C(=O)c2ccccc2S3=O)C1 (stereo not drawn) | ? | -7% | nt | 3% | ? | -7%&-15% | 10% | 1.8%
Cc1ccc(NC(=S)NNC(=S)Nc2cccc(C(F)(F)F)c2)cc1 | -29%[46.1 µM] | 1% | -4% | -4% | -22%[46.1 µM] | -16% | nt | nt
NC(=O)COC(=O)c1sc2ccccc2c1Cl | -3% | -6% | nt | -1% | 19%[46.1 µM] | 17% | nt | nt
CCN(CC(=O)Nc1c(F)cccc1F)C(=O)c1ccc(Cl)c(S(=O)(=O)N2CCCCC2)c1 | nt | -11% | -6% | 1% | nt | -9% | nt | nt
COc1cccc(-c2csc(N3CCN(C(=S)Nc4ccccc4Cl)CC3)n2)c1 | ? | 16% | 8% | -8% | -2% | nt | ? | -1.4%
O=C(COC(=O)c1cc[n+]([O-])cc1)Nc1ccc(Cl)cc1[N+](=O)[O-] | -9%[46.1 µM] | -2% | nt | -3% | 22%[46.1 µM] | 4% | nt | nt
CCOC(=O)c1ccc(NC(=O)CSc2nccn2C)cc1 | ? | -1% | -13% | -5% | -6% | 47%[activator] | 2% | 5.0%
COC(=O)CS(=O)(=O)c1nnc([C@H](Cc2ccccc2)NC(=O)OC(C)(C)C)o1 | ? | -22% | -139% | -21% | ? | 32µM* | 10µM* | 7.1µM*

Continuation:
SMILES | LASV entry inh | RE007 growth inh | NS1 function inh | SARS PLpro yeast | Marburg entry inh | 2A StopGo | Cruzain inh noDet | Cruzain inh Det
COc1ccccc1CNC(=O)[C@H](C)N1C(=O)N2CCc3c([nH]c4ccccc34)[C@@]2(C)C1=O | nt | -6% | -5% | 3% | nt | ? | nt | nt
OC(CN1CCOCC1)CN(c1ccccc1)c1ccccc1 (stereo not drawn) | -2% | -8% | -4% | 12% | 5% | -26% | 13% | 11%
CCOC(=O)N1CCC(NC(=O)c2cc(COc3ccc(F)cc3Cl)on2)CC1 | 1% | -5% | 3% | 2% | -9% | -10% | nt | nt
COc1ccc(C(CC(=O)NCc2ccccc2)C(C)C)cc1 (stereo not drawn) | 3% | 12% | 3% | 0% | 0%[14.2 µM] | 11% | nt | nt
CCCn1c(CCC(=O)Nc2cc(Cl)c(OC)cc2OC)nc2cccnc21 | 2%[46.1 µM] | nt | nt | nt | ? | -6% | 7% | -3.0%
CCOc1ccc(NC(=O)CC2C(=O)N(C)C(=S)N2Cc2ccc3c(c2)OCO3)cc1 (stereo not drawn) | ? | -13% | 11% | 11% | ? | -7% | 1% | -6.3%
CC1CC2(O)c3nonc3CCC2N1O (stereo not drawn) | 2% | 6% | 7% | -13% | 4% | -2% | -11% | 2.9%
O=C1C(=O)c2c(C(=O)c3ccccc3)coc2-c2ccccc21 | ? | 11µM* | -40% | -35% | ? | -1% | ? | -8.0%
CCCCCCCCC(=O)NNC(=O)c1c(O)c2ccccc2n(CCC)c1=O | 8% | -13% | nt | 17% | 4%[46.1 µM] | -11% | nt | nt
OC1CCCN(Cc2ccc3c(c2)Cc2ccccc2-3)C1 (stereo not drawn) | 27% | 4% | -2% | 5% | 7% | 44%[activator] | -16% | -1.9%
CN(C)CCCNC(=S)N1CCn2c(nc3ccccc32)C1 | -14% | 8% | 1% | -12% | -7% | -27% | -19% | -15%
COCCC(=O)N1CCC(Oc2ccc(C(=O)NCCc3ccccn3)cc2)CC1 | -4% | 2% | -5% | 1% | 12%[46.1 µM] | -3% | nt | nt
